# HCMV UL50-53 inh: inhibitors of HCMV UL50-UL53 interaction, biochemical, HTRF | HCMV UL50-UL53 nuclear egress complex (human cytomegalovirus) | normalized percent inhibition | inhibition, % (no concentration beside the values) | actives 0.15% (n = 190,000);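 active = both replicates at 50% or more, plus weaker picks with an unusually low signal ratio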;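 note: stock transfer was 100 nL into about 20 µL; 0% = negative control wells and 100% = wells with untagged competitor protein; inactives centre near -12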
# GIV Gai3 FP: inhibitors of GIV peptide binding to Galpha-i3, primary screen, biochemical, fluorescence polarization, FITC-GIV GBA peptide, rat Galphai3; AID 1224905, 2016; Guanine nucleotide-binding protein G(i) subunit alpha-3 (Rattus norvegicus), P08753; 90 min; active compounds read low; scaled: aluminum fluoride 0%, vehicle 100%; percent of control (FP), % (test concentration not listed); actives 0.42% (n = 210,000);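 active = replicate mean at 85% of control or lower, very high polarization wells dropped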;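 note: lower values mean more displacement of the GIV peptide from Galpha-i3; wells of about 15 µL received 100 nL stock; the first replicate is given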
# Target sequence (P08753 whole entry, looked up): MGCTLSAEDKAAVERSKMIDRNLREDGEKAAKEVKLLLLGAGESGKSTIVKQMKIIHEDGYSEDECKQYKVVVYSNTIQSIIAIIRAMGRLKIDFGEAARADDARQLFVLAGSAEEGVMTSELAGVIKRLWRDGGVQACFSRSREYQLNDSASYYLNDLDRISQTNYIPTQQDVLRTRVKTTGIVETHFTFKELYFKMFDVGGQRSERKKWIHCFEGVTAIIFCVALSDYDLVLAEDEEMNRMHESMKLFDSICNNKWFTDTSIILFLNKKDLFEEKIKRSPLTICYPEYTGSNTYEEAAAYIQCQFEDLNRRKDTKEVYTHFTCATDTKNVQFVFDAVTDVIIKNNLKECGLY
# Sa growth inh: S. aureus growth inhibition at 42 and 30 °C, primary screen, LtaS inhibitor project, RN4220, two temperatures | OD600, 20 h, 42 °C; active compounds read low | relative growth, % (test concentration not listed) | actives 0.53% (n = 170,000) | AID 720641, 2013;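 active = growth at 42 °C up to 50% and 20 or more points under that at 30 °C, or under 10% at both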;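 note: 300 nL library stock went into each well; scaled to the means of positive and negative controls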
# Sa growth inh second temp: recorded beside Sa growth inh, whose call it bears; relative growth, %; measured here: growth at 30 °C;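 optical density after 20 h as mean of two plates; 100% = untreated growth and lower means inhibition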
# Active calls of the source: *; x = no result given; & = joins results of further samples.
1	C=CCn1c(SCC(=O)OCC)nc2sc3c(c2c1=O)CC(C)(C)SC3
2	O=C(CN1C(=O)c2ccccc2C1=O)N1CCN=C1c1ccccc1
3	N#CCCn1c(=O)n(CCC#N)c(=O)n(CCC#N)c1=O
4	Cc1ccc(NC(=O)C2CCN(S(=O)(=O)c3cccc4nonc34)CC2)cc1C
5	Cc1ccc(CCNC(=O)c2ccc(CSCc3ccc(C)cc3)o2)cc1
6	O=C1Nc2ccccc2N(O)N1c1ccc(S(=O)(=O)N2CCOCC2)cc1
7	N#Cc1c(N)nc2c(c1C(=O)OCCO)CCC2
8	CC1(C)C=Cc2c(c3occc3c3oc(-c4ccccc4)cc(=O)c23)O1
9	Cc1cc(C)c2c(-n3cccc3)nn(CCCC(=O)NCc3ccccc3)c2n1
10	COc1ccc(C(=O)NCC(c2ccc(N(C)C)cc2)N2CCc3ccccc32)cc1OC (stereo unspecified)

assay / compound,1,2,3,4,5,6,7,8,9,10
HCMV UL50-53 inh,-25,x,-20,x,x,-15,-24,22,-6,x
GIV Gai3 FP,98,101,103,107,96,99,106,109,114,99
Sa growth inh,103,99,103,117,73,103,106,97,x,91
Sa growth inh second temp,93,82,96,79,85,86,85,96,x,88

# 3 entries from above, with values under each structure.
# Each structure is followed by: HCMV UL50-53 inh | GIV Gai3 FP | Sa growth inh | Sa growth inh second temp
8. CC1(C)C=Cc2c(c3occc3c3oc(-c4ccccc4)cc(=O)c23)O1
  22 | 109 | 97 | 96
9. Cc1cc(C)c2c(-n3cccc3)nn(CCCC(=O)NCc3ccccc3)c2n1
  -6 | 114 | x | x
10. COc1ccc(C(=O)NCC(c2ccc(N(C)C)cc2)N2CCc3ccccc32)cc1OC (stereo unspecified)
  x | 99 | 91 | 88

# Next compounds follow:
11	COc1ccc(C(=O)NCC(c2ccc(N(C)C)cc2)N2CCCC2)cc1 (stereo unspecified)
12	O=C(NC1CCCCC1)c1nc(Nc2ccccc2)c2ccccc2n1
13	O=C(Nc1cccc(OCc2cc(=O)n3ccccc3n2)c1)Nc1cccc(C(F)(F)F)c1
14	COc1ccccc1CNC(=O)C1CCN(S(=O)(=O)c2c(C)noc2/C=C/c2c(C)cc(C)cc2C)CC1
15	O=C(Cn1c(=O)sc2cc(S(=O)(=O)N3CCc4ccccc43)ccc21)N1CCCC1
16	N#CCCN(CCN1CCOCC1)C(=S)Nc1ccc(Cl)c(Cl)c1
17	O=C(/C(=C/c1cccs1)c1cccs1)N1CCCCCC1
18	O=c1[nH]c2c(F)cccc2c(O)c1-c1ccccc1
19	COc1ccc(N2CCN(C(=O)c3[nH]c(C)c(S(=O)(=O)N4CCOCC4)c3C)CC2)cc1
20	CCS(=O)(=O)Nc1cc(-c2cn3ccc(C)cc3n2)ccc1C

assay / compound,11,12,13,14,15,16,17,18,19,20
HCMV UL50-53 inh,x,-18,x,x,-22,-9,-20,-3,-18,-6
GIV Gai3 FP,102,105,105,107,108,x,x,99,104,101
Sa growth inh,109,x,94,117,x,89,85,78,x,100
Sa growth inh second temp,87,x,94,92,x,87,89,89,x,81

21	Cc1c(CNCC2CCCO2)c(C(=O)O)c(C)n1Cc1ccccc1Cl (stereo unspecified)
22	COc1ccc(NC(=O)CSc2nc(-c3cccc(C)c3)[nH]c2-c2ccccc2)cc1OC
23	COc1cccc(/C=N/n2c(N3CCOCC3)nc3ccccc32)c1OC
24	CC(C)CNC(=O)c1ccc2c(=O)n(CC(C)C)c(=S)[nH]c2c1
25	COC(CNC(=O)Cn1nc(Cc2cccnc2)c2ccccc2c1=O)OC
26	CCOC(=O)c1c(NC(=O)COc2c(C)cc(Cl)cc2Cl)sc2c1CCCC2
27	COc1cc(Cl)c(C)cc1NC(=O)c1sc2ncn(CC(=O)Nc3cccc(C(F)(F)F)c3)c(=O)c2c1C
28	CN(C)C(=O)CSc1nc2cc(Cl)ccc2o1
29	CC(C)(O)C12CC3CC(C1)CC(C(C)(C)O)(C3)C2
30	CN(C)C(=O)c1coc2nc3ccccc3nc12

assay / compound,21,22,23,24,25,26,27,28,29,30
HCMV UL50-53 inh,1,-10,-12,0,-12,-28,-1,-18,x,-25
GIV Gai3 FP,113,102,x,x,101,105,111,x,97,x
Sa growth inh,x,106,104,92,96,98,x,104,98,65
Sa growth inh second temp,x,64,92,92,84,95,x,88,79,88

31	CC(CN1CCOCC1)OC(=O)Cc1ccc(Cl)cc1 (stereo unspecified)
32	CCCN1C(=O)c2c(C(=O)NCCC3=CCCCC3)ncn2CC1(C)C(=O)NCCC(C)C (stereo unspecified)
33	CCc1ccc(NS(=O)(=O)c2ccc3c(c2)N(CC(=O)OC)C(=O)CS3)cc1
34	COc1ccc(C(CNc2nn3cnnc3c3ccccc23)N2CCCC2)cc1 (stereo unspecified)
35	C=C1c2ccccc2NC(=O)N1c1ccc(C)cc1
36	CC1CCCN(C(=O)Cn2cc(S(=O)(=O)N3CCN(c4ccccc4F)CC3)c3ccccc3c2=O)C1 (stereo unspecified)
37	Cc1onc(-c2c(Cl)cccc2Cl)c1C(=O)O/N=C(\N)CN1CCSCC1
38	CNS(=O)(=O)c1cc(-c2nnc(N3CCOCC3)c3ccccc23)ccc1C
39	CCc1ccc(C2CC(=O)NC3=C2C(=O)CC(C)(C)C3)cc1 (stereo unspecified)
40	CCCOc1ccc(C(=O)Nc2ccc3oc(-c4cccc(Cl)c4Cl)nc3c2)cc1

assay / compound,31,32,33,34,35,36,37,38,39,40
HCMV UL50-53 inh,-23,-5,4,-5,x,10,-20,-29,-16,-18
GIV Gai3 FP,106,110,107,98,96,112,104,104,99&98,104
Sa growth inh,114,x,x,x,89,94,102,x,106,99
Sa growth inh second temp,96,x,x,x,88,94,96,x,80,95

41	Cc1ccc2c(=O)cc(C(=O)Nc3c(C)n(C)n(-c4ccccc4)c3=O)oc2c1
42	Cc1cc(S(=O)(=O)N2CCCN(c3nc4ccc(Cl)cc4s3)CC2)c(C)cc1Cl
43	COc1cccc(N2CCN(S(=O)(=O)c3cc4c(cc3C)N(C)CCO4)CC2)c1
44	CCn1cc(NC(=S)Nc2cc(Cl)ccc2OC)c(C(N)=O)n1
45	Cc1cc(OCCNCCN)cc(C(C)C)c1
46	CCn1c(O)c(/C(C)=N/c2ccnn2C2CCCCC2)c(=O)n(CC)c1=S
47	O=C1CCC(C(=O)OCn2nnc3ccccc3c2=O)=NN1
48	COc1ccccc1-c1noc(CCC(=O)Nc2ccc(C)cc2C)n1
49	CC(C)(C)OC(=O)N1CCC(CNS(=O)(=O)c2cccs2)CC1
50	C=CCNc1ncnc2sccc12

assay / compound,41,42,43,44,45,46,47,48,49,50
HCMV UL50-53 inh,-49&-14,-11,x,9&-3,-12,-8,-27,-11,-6,1
GIV Gai3 FP,107&104,109,101,103,107,x,x,105,104,104
Sa growth inh,98,77,102,105,104,88,97,93,95,99
Sa growth inh second temp,86,89,91,93,101,90,94,83,72,90

51	CN(Cc1ccc(-c2ccc(Cl)cc2)o1)C(C(=O)NC(N)=O)c1ccccc1 (stereo unspecified)
52	Cc1oc(-c2ccc(C(=O)NCCc3ccc(Cl)cc3)cc2)nc1CSc1ccccc1
53	Cc1ccccc1CNC(=O)C(=O)NCC(c1ccco1)S(=O)(=O)c1ccccc1 (stereo unspecified)
54	CC1CCC(CC(=O)O)(CC(=O)O)CC1
55	C=CCn1c(=O)c2c(nc3n2CCCN3C2CCCCC2)n(C)c1=O
56	CCOc1cc(CNc2ccc(NC(=O)CC)cc2)ccc1OCc1cccs1
57	CCc1c(O)nc(SCC(=O)N2CCc3ccccc32)n(-c2ccc(F)cc2)c1=O
58	CCCC1CCC(c2ccc(C#N)c(=O)[nH]2)CC1 (stereo unspecified)
59	COc1ccc(Cl)cc1NC(=O)N1CCC(c2nc(-c3ccccc3)no2)CC1
60	CCn1nccc1C1CCCN1C(=O)Nc1cc(OC)cc(OC)c1 (stereo unspecified)

assay / compound,51,52,53,54,55,56,57,58,59,60
HCMV UL50-53 inh,-7,x,x,-14,x,x,x,-18,5,-28
GIV Gai3 FP,x,106,100,103,102,107,100,102,107,101
Sa growth inh,122,145,117,114,109,79,106,122,x,x
Sa growth inh second temp,85,86,91,102,96,78,89,109,x,x

61	CCOc1ccccc1-c1c(C#N)c(N)nc(OC)c1C#N
62	Cc1ccc(C(=O)COC(=O)c2ccc(-c3nnc(-c4ccccc4)o3)cc2)cc1C
63	CC(C)(C)Cc1cc(N)on1
64	COC(=O)c1ccccc1S(=O)(=O)Nc1cc(Cl)ccc1C
65	COc1ccccc1NC(=O)Cn1c(=O)n(CCC(=O)NCC2CCCO2)c(=O)c2cc(OC)c(OC)cc21 (stereo unspecified)
66	O=C(Nc1ccccc1Cl)N1CCN(c2nc3cccnc3s2)CC1
67	O=c1c2ccccc2nc2ccc(NCc3ccco3)nn12
68	CC1=Nc2ccc(N)cc2C1(C)C
69	Cc1occc1-c1nnc(SC(C)c2nc3sc4c(c3c(=O)[nH]2)CCC(C)C4)n1N (stereo unspecified)
70	CCOCCCn1c(=N)c(C(=O)NCc2ccco2)cc2c(=O)n3ccccc3nc21

assay / compound,61,62,63,64,65,66,67,68,69,70
HCMV UL50-53 inh,-13,-8,-12,-9,6,19,-52,-166,-21,-83
GIV Gai3 FP,103,x,x,x,105,107,108,143,x,111
Sa growth inh,x,83,88,119,85,x,93,101,117,115
Sa growth inh second temp,x,85,95,82,88,x,72,119,80,89

71	COc1ccc(Cl)cc1NC(=O)CCc1c(C)[nH]n(-c2nc(C)cs2)c1=O
72	C=Cc1ccc(CN2C(=O)c3ccccc3S(=O)(=O)c3ccc(C(=O)OCC4CCCO4)cc32)cc1 (stereo unspecified)
73	Cc1ccc(CNC(=O)c2cc(=O)c3cc(C)c(C)cc3o2)cc1
74	C=CC(=O)Nc1ccc(OC(F)(F)F)cc1
75	O=C(c1ccc(Nc2ccnc(-c3ccc(F)cc3)n2)cc1)N1CCCC1
76	CCOC(=O)c1cc2c(ccn2C)n1Cc1ccc(OC(F)(F)F)cc1
77	CCOC(=O)c1cc(-c2ccc(C)cc2)n(CC(=O)Nc2ccc(OC)c(Cl)c2)c1C
78	Cc1ccccc1Cn1cnc2onc(C)c2c1=O
79	CNCc1ccccc1OC
80	Cc1ccc(-c2nn(-c3ccccc3)cc2/C=C2\SC(=S)N(CCCC(=O)O)C2=O)cc1

assay / compound,71,72,73,74,75,76,77,78,79,80
HCMV UL50-53 inh,-32,-16,-30,23,-13,0,-13,-28,-13,x
GIV Gai3 FP,113,107,105,103,97,118,97,98,x,108
Sa growth inh,x,x,106,91,x,99,94,x,99,114
Sa growth inh second temp,x,x,81,95,x,78,81,x,94,80

# Five structures already listed, ordered by length of the SMILES, highest first.
77	CCOC(=O)c1cc(-c2ccc(C)cc2)n(CC(=O)Nc2ccc(OC)c(Cl)c2)c1C
76	CCOC(=O)c1cc2c(ccn2C)n1Cc1ccc(OC(F)(F)F)cc1
5	Cc1ccc(CCNC(=O)c2ccc(CSCc3ccc(C)cc3)o2)cc1
31	CC(CN1CCOCC1)OC(=O)Cc1ccc(Cl)cc1 (stereo unspecified)
28	CN(C)C(=O)CSc1nc2cc(Cl)ccc2o1

assay / compound,77,76,5,31,28
HCMV UL50-53 inh,-13,0,x,-23,-18
GIV Gai3 FP,97,118,96,106,x
Sa growth inh,94,99,73,114,104
Sa growth inh second temp,81,78,85,96,88

# Rewritten as labelled records: 2 of the compounds above
76: CCOC(=O)c1cc2c(ccn2C)n1Cc1ccc(OC(F)(F)F)cc1
  HCMV UL50-53 inh = 0	GIV Gai3 FP = 118	Sa growth inh = 99	Sa growth inh second temp = 78
77: CCOC(=O)c1cc(-c2ccc(C)cc2)n(CC(=O)Nc2ccc(OC)c(Cl)c2)c1C
  HCMV UL50-53 inh = -13	GIV Gai3 FP = 97	Sa growth inh = 94	Sa growth inh second temp = 81

# (more compounds)
81	Cc1ccccc1Nc1nc(N)nc(CNCCCN2CCCCCC2=O)n1
82	O=C(CN1CCN(c2ccccc2Cl)CC1)NCC(F)(F)F
83	CCCCNC(=O)CN1C(=O)CSc2ccc(S(=O)(=O)N3CCC(C)CC3)cc21
84	O=C(CCCn1c(=O)[nH]c2ccccc2c1=O)NCc1ccc2c(c1)OCO2
85	COc1cc(NC(=O)C2CCCN(c3ccc4cc(S(=O)(=O)N5CCCC5)ccc4n3)C2)cc(OC)c1 (stereo unspecified)

assay / compound,81,82,83,84,85
HCMV UL50-53 inh,10,-4,-18,-2,-4
GIV Gai3 FP,x,x,99,100,109
Sa growth inh,101,100,107,95,x
Sa growth inh second temp,104,92,84,85,x

# Screening data deposited in PubChem by ICCB-Longwood Screening Facility, Harvard Medical School.
